Screens from PubChem.
NPYLR7 ag = agonists of mosquito NPYLR7 receptor, primary screen, cell-based, Aedes aegypti, calcium fluorescence, mosquito biting behavior; HEK293T NPYLR7/Galpha15, GCaMP6s calcium fluorescence; 0.15% of 270,000 active; Aedes aegypti neuropeptide Y-like receptor 7 (NPYLR7); activation, % at 10 µM; AID 1259423, 2018; in the data active = activation above about 40%;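 note: 0% = vehicle and 100% = reference agonist at the receptor; some compounds past the cut are filed as inactive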
NPYLR7 ag max-min = recorded beside NPYLR7 ag, whose call it bears; activation, %; measured here: Max-Min RFU normalised activation; some inactives read as strong as hits;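 span of the calcium signal over five minutes; 0% = vehicle and 100% = native peptide agonist; compound fluorescence can raise it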
The depositor's hits bear a star; & = joins results of further samples. Only part of the results is shown; count on the stated rates, not on these rows.

SMILES | NPYLR7 ag | NPYLR7 ag max-min
O=C1c2c(Cl)c(Cl)c(Cl)c(Cl)c2C(=O)N1Cc1ccncc1 | 0 | 0
CCc1cnc(CN(C)C(=O)NC2CCCc3c2cnn3C)s1 (stereo unspecified) | 4 | 2
O=C1CSC(c2cccnc2)N1c1cccc(Cl)c1 (stereo unspecified) | -9 | -10
CCc1nccn1Cc1nc(-c2ccc(C)s2)oc1C | 4 | 3
Cc1ccsc1C(CNC(=O)c1cnc2ccccn2c1=O)N(C)C (stereo unspecified) | 5 | 2
O=C(CC(O)(c1nc2ccccc2s1)C(F)(F)F)c1cccc(Br)c1 (stereo unspecified) | -1 | 1
c1ccc(C2(c3ccccc3)CC2CN2CC(c3ccncc3)C2)cc1 (stereo unspecified) | 14 | 10
CN(C(=O)CN1CCN(c2cc(-c3cccc4oc5ccccc5c34)ncn2)CC1)c1ccccc1 | 12 | 9
Cc1ccc(NC(=O)Cn2nnc(C(=O)Nc3ccccc3C)c2N)cc1 | -6 | -14
COc1cccc(N2C(=O)CC(N3CCC(C(N)=O)CC3)C2=O)c1 (stereo unspecified) | 1 | -1
CCc1c(C)nc(-c2cccc(C(F)(F)F)c2)nc1N1CCN(C(=O)C(C)Cl)CC1 (stereo unspecified) | -5 | 1
Cc1cc(C)n(-c2cccc(-c3cnc(C)[nH]3)c2)n1 | 6 | 1
Cc1cc(C)n(CCNC(=O)CC2C(=O)NCCN2C(C)C)c(=O)n1 (stereo unspecified) | 17 | 5
O=C(NC(c1ccccc1)C1CC1)c1cc(F)cc(F)c1 (stereo unspecified) | 0 | -1
Cc1nc(CN(CC(=O)N2CCCC2)CC2CCCO2)no1 (stereo unspecified) | 13 | 8

Given with tabs: entries from further up
canonical_smiles	NPYLR7 ag	NPYLR7 ag max-min
CN(C(=O)CN1CCN(c2cc(-c3cccc4oc5ccccc5c34)ncn2)CC1)c1ccccc1	12	9
Cc1ccc(NC(=O)Cn2nnc(C(=O)Nc3ccccc3C)c2N)cc1	-6	-14

(more compounds)
SMILES | NPYLR7 ag | NPYLR7 ag max-min
S=c1[nH]c(=S)c2cnc(N3CCCC3)nc2[nH]1 | 5 | 4
Cc1ncsc1C(=O)NCc1ccc(Br)s1 | 12 | 10
COCC(C)N(Cc1ccccc1OC)C(=O)c1ccc2ncccc2c1 (stereo unspecified) | -11 | -9
CSc1nc2c(c(=O)[nH]1)C1(CCCC1)Cc1ccccc1-2 | -8 | -10
Cc1ccccc1CN1CCC(CN(CC2CCCO2)C(=O)c2ccc(=O)n(C)n2)CC1 (stereo unspecified) | -1 | -4
COc1ccc(OC)c(C2C3CCCC=C3C(C#N)C(=N)C2(C#N)C#N)c1 (stereo unspecified) | 12 | 4
CN1CC2(CCN(C(=O)c3csc(Cc4ccccc4)n3)C2)OC1=O (stereo unspecified) | 0 | 2
COC(=O)c1ccc(OC)c(Cn2cnc3c(-c4ccc(OC)cc4)csc3c2=O)c1 | -1 | -1
COc1ccc(C(=O)NCCc2csc3nc(-c4ccc(F)cc4)nn23)cc1OC | 1 | 1
Fc1ccc(-c2ccc(N3C[C@H]4CC=CC[C@H]4C3)nn2)cc1 | 6 | 3
NC[C@@H]1CC[C@@H](N)[C@@H](O[C@H]2[C@H](O)[C@@H](O[C@H]3O[C@H](CO)[C@@H](O)[C@H](N)[C@H]3O)[C@H](N)C[C@@H]2N)O1 | -10&-3 | -11&-7
OC(CSCc1ccc(Cl)cc1)c1ccc2c(c1)CCCC2 (stereo unspecified) | 2&-3 | 0&-1
CCOCCn1c(=O)c2c(nc3n(-c4ccc(CC)cc4)c(C)c(C)n23)n(C)c1=O | -1 | 5
CCOC(=O)CC1CCCCN1C(=O)c1cn(CCCc2ccccc2)nn1 (stereo unspecified) | 12 | 10
COc1ccc(-c2cc(C(=O)NCCN(C)C)c(C)n2-c2cccc(OC)c2)cc1 | 22 | 29

An excerpt from above in order of SMILES length, highest first.
SMILES | NPYLR7 ag | NPYLR7 ag max-min
NC[C@@H]1CC[C@@H](N)[C@@H](O[C@H]2[C@H](O)[C@@H](O[C@H]3O[C@H](CO)[C@@H](O)[C@H](N)[C@H]3O)[C@H](N)C[C@@H]2N)O1 | -10&-3 | -11&-7
CCc1c(C)nc(-c2cccc(C(F)(F)F)c2)nc1N1CCN(C(=O)C(C)Cl)CC1 (stereo unspecified) | -5 | 1
Cc1ccccc1CN1CCC(CN(CC2CCCO2)C(=O)c2ccc(=O)n(C)n2)CC1 (stereo unspecified) | -1 | -4
COc1ccc(-c2cc(C(=O)NCCN(C)C)c(C)n2-c2cccc(OC)c2)cc1 | 22 | 29
COc1ccc(OC)c(C2C3CCCC=C3C(C#N)C(=N)C2(C#N)C#N)c1 (stereo unspecified) | 12 | 4
Fc1ccc(-c2ccc(N3C[C@H]4CC=CC[C@H]4C3)nn2)cc1 | 6 | 3
CN1CC2(CCN(C(=O)c3csc(Cc4ccccc4)n3)C2)OC1=O (stereo unspecified) | 0 | 2
CCOC(=O)CC1CCCCN1C(=O)c1cn(CCCc2ccccc2)nn1 (stereo unspecified) | 12 | 10
COCC(C)N(Cc1ccccc1OC)C(=O)c1ccc2ncccc2c1 (stereo unspecified) | -11 | -9
Cc1cc(C)n(-c2cccc(-c3cnc(C)[nH]3)c2)n1 | 6 | 1
O=C(NC(c1ccccc1)C1CC1)c1cc(F)cc(F)c1 (stereo unspecified) | 0 | -1
S=c1[nH]c(=S)c2cnc(N3CCCC3)nc2[nH]1 | 5 | 4
Cc1ncsc1C(=O)NCc1ccc(Br)s1 | 12 | 10

The listing continues.
SMILES | NPYLR7 ag | NPYLR7 ag max-min
CC1(C)S[C@@H]2[C@H](N=CN3CCCCCC3)C(=O)N2[C@H]1C(=O)O | -9 | -14
COCc1nnc(C(=O)N2CCN(c3cccc(C)n3)CC2)o1 | 2 | -1
O=C(CSCc1ccc(Cl)c(Cl)c1)N1CCN(c2ncccn2)CC1 | -2 | -3
CC1(C(=O)NCc2cccc3ccccc23)CCN1Cc1cccc2c1OCO2 (stereo unspecified) | 10 | 1
Cc1cnn(-c2cc(-c3ccccc3CO)ncn2)c1 | -2 | -8
N=C(N)N1CCN(Cc2ccc(Br)s2)CC1 | 9 | 14
O=C(Nc1ccc(F)cc1F)c1cccn(OCc2ccc(F)cc2)c1=O | 5 | 2
COc1cccc(C(=O)N2CCN(c3nncc(-c4ccccc4)n3)CC2)c1 | 0 | -3
CCOC(=O)c1ccc(Nc2nc(-c3cc4ccc(OCC)cc4oc3=O)cs2)cc1 | 3 | 12
CC1(C(=O)NS(=O)(=O)c2ccc(Cl)s2)CCN1C(=O)Cc1cccc2ccccc12 (stereo unspecified) | 6 | 2
COc1ccc(-c2nnc3n2N=C2CCCCC2S3)cc1OC (stereo unspecified) | 0 | 2
Cc1cc(=O)n2c(-c3cccc(NC(=O)Nc4ccc(F)cc4)c3)csc2n1 | 22 | 13
CC(=O)OC(C(=O)N(Cc1nc2cc(C)ccc2o1)Cc1ccccc1Cl)c1ccccc1 (stereo unspecified) | -5 | -3
Cc1ccc(-n2nnnc2SC(C)C(=O)N2CCCC2)c(C)c1 (stereo unspecified) | 3 | 0
COc1ccc(CCn2c(-c3ccc(Cl)c(F)c3)nc3ccc(Br)cc3c2=O)cc1 | 5 | 3
CCn1c(N2C[C@H]3CC=C(C)C[C@H]3C2)nc2cc(C(=O)OC)cnc21 | 4 | 0
COc1ccc(O)c(CN2CCC3(CCCN(CCc4ccccc4)C3)C2)c1 (stereo unspecified) | -1 | -2
CN1C(=O)CCN(Cc2cc3c(cc2Br)OCCO3)c2ccccc21 | -1 | -2
CN(C)c1nc(-c2ccncc2)nc2c1CCN(S(=O)(=O)N(C)C)C2 | -8 | -11
Cc1ccc(S(=O)(=O)NC(=O)C2(C)CCN2C(=O)C2CCCCC2)nc1 (stereo unspecified) | 6 | 2
C=CCNCC1CC(c2ccccc2Cl)=NO1 (stereo unspecified) | -3 | -8
Cc1ccc(Cn2nc(Cl)nc2Cl)cc1 | 5 | 1
CS(=O)(=O)c1cccc(C(=O)Nc2nccs2)c1 | 5 | -1
O=C(NC(=S)Nn1cnnc1)c1ccc(F)cc1Cl | 2 | 1
COc1ccc(OC)c(C2c3[nH]c4ccccc4c3CCN2Cc2cc3c(cc2Cl)OCO3)c1 (stereo unspecified) | -6 | -11
CC(C)CN1CCC1(C)C(=O)Nc1ccccc1 (stereo unspecified) | 4 | 1
CCCCS(=O)(=O)Nc1ccc2c(c1)ncn2C1CCCCC1 | 1 | 1
COc1ccc(S(=O)(=O)Oc2ccc(CN(Cc3ccco3)C(=O)c3ccco3)cc2)cc1 | 18 | 15
CC(C)c1ccc(NC(=O)Cc2csc(NC(=O)c3ccc[nH]c3=O)n2)cc1 | 1 | 1
CCc1nc2ccc(C(=O)N3CCCC(C(N)=O)C3)cn2c1N(C)C(=O)Cc1ccccc1 (stereo unspecified) | 15 | 15
CCOC(=O)C1(C/C=C/c2ccccc2)CCCN(Cc2cnc(SC)nc2)C1 (stereo unspecified) | -1 | -3
Cc1ccc(C(C)NC(=O)N2CCCC(c3nncn3C)C2)o1 (stereo unspecified) | 2 | 0
C=CCC1CC(=O)N(CCNc2ccc([N+](=O)[O-])cn2)C1=O (stereo unspecified) | 3 | 4
S=c1[nH]nc(Cc2cccc3ccccc23)n1N=Cc1cccnc1 | 2 | 9
Cc1noc(C)c1C(=O)N[C@H]1CN[C@H](C(=O)NCc2ccc3nonc3c2)C1 | 15 | 11
Cc1cc(Br)cc(Cl)c1OCC(=O)NC1(C#N)CCCCC1 | 14 | 7
CC(C(=O)O)N1C(=O)/C(=C\c2ccc(O)cc2)SC1=S (stereo unspecified) | 62* | 60*
CCOC(=O)N1CCN(C(=O)CSc2nc3c(c(=O)n2-c2ccc(C)cc2)SCC3)CC1 | -5 | -7
CC(=O)c1c(C)oc2ccc(N(C(=O)C3CCCCC3)S(=O)(=O)c3ccccc3)cc12 | -4 | -12
CCCCN(Cc1cccn1Cc1cccc(C)c1)C(=O)CN(CCC)C(=O)c1ccc(Cl)c(Cl)c1 | 3 | 17
Cc1cc(C(=O)N2CCCC2(C)C(=O)O)nn1C(C)(C)C (stereo unspecified) | 2 | 0
O=C(NCc1ccccn1)c1cccc(OC2CCN(C(=O)C3CC34CCC4)CC2)c1 (stereo unspecified) | 1 | -2
CN(Cc1n[nH]c(=O)[nH]1)Cc1cn(C)nc1-c1ccc(C2CCCCC2)cc1 | 4 | 1
CCOC(=O)C1CCN(CC(=O)N2N=C(c3ccccc3Cl)CC2c2ccc(OCC)cc2)CC1 (stereo unspecified) | 2 | 5
COC(c1ccccc1)c1nnc(CCC(=O)N2CCC(Oc3cccc(C)c3)CC2)o1 (stereo unspecified) | 11 | 2
O=C(CN1CSCC1=O)Nc1nc2c(Cl)c(Cl)ccc2s1 | 11 | 9
CC1(C(=O)NC2Cc3ccccc3C2)CCN1C(=O)CC1CC1 (stereo unspecified) | 5 | 4
CC(NC(=O)N1CCN(c2ccccc2F)CC1)c1ccc(F)c(F)c1 (stereo unspecified) | 19 | 17
COCCCNC(=O)C(NC(=O)c1cccc(C)c1)C1CCN(C(=O)c2ccco2)CC1 (stereo unspecified) | -4 | 3
CC(=O)Nc1ccc(S(=O)(=O)NC(C(=O)Nc2nnc(-c3cccc(C)c3)s2)C(C)C)cc1 (stereo unspecified) | -1 | 13
CCn1c(N/N=C2\CCOc3c(C)cccc32)nc2ccccc2c1=O | 2 | 1
Cc1ccc(-c2nnc(-c3ccccc3N)[nH]c2=O)cc1C | 11 | 7
Cc1nn(C)c(C)c1CCC(=O)Nc1ccc(Cl)cc1F | -2 | 1
Cc1ccc(-c2nnc3sc(-c4cc(C)on4)nn3c2=O)cc1 | -3 | -11
CCCCN(C(=O)C1CCCC1)c1c(N)n(CC(C)C)c(=O)[nH]c1=O | 3 | 3
O=C(CCNC(=O)OCC(F)(F)F)OC1c2ccccc2-c2ccccc21 | 0 | 57
O=C(c1cc(Cn2cnc3ccccc32)[nH]n1)N(Cc1ccc(O)cc1)C1CC1 | 16 | -1
CCOCCCn1c(=S)[nH]c2c(C)cccc2c1=O | 4 | 2
CCSc1nc(N2CCOCC2)c2cnn(CCNC(=O)c3ccc(F)c(F)c3)c2n1 | 0 | 0
C=CCNc1nc2cc(-c3cccc(NC(C)=O)c3)sc2c(=O)n1C | 11 | 7

(cont.)
SMILES | NPYLR7 ag | NPYLR7 ag max-min
CCOC(=O)C1(CCc2ccccc2)CCNCC1 | 6 | 3
CCOC(=O)[C@@H]1CCCC[C@@H]1NC(=O)c1ccc(-n2nc(-c3ccc(Cl)cc3)cc2N)cc1 | 9 | 4
CCc1ccccc1NC(=O)NCCNc1cc(-n2nc(C)cc2C)nc(C)n1 | -4 | -10
CC(C)(C)c1ccc(C=NNC(=O)Cn2nnc3ccccc32)cc1 | -6 | -10
Cc1ccc(-c2nc(C=Nc3ccc(C(=O)N(C)c4ccccc4)cc3)c(O)o2)cc1 | -4 | -8
Cc1noc(-c2ccncc2)c1C(=O)NCCc1ccncc1 | 10 | 16
COc1ccc(-c2csc(-n3[nH]c(C)c(N=Nc4cccc(Cl)c4)c3=O)n2)cc1 | 12 | 14
CCCC(C)N(C)C(=O)NC(Cc1ccc(F)cc1)c1ccc(OC)cc1 (stereo unspecified) | -7 | -7
COc1cccc(OC)c1-c1ccc(-n2cncc2C(=O)NC(C)CCC(C)C)cc1 (stereo unspecified) | 5 | 4
CCOC(=O)c1c(C)[nH]c(C(=O)OCC(=O)NC(=O)NC(C)(C)C)c1C | -12 | -8
NS(=O)(=O)c1ccc(NCCCCOc2ccccc2)c([N+](=O)[O-])c1 | 7 | 3
Cc1ccc(C(=O)n2c(C)c(C)c(C)c(C#N)c2=O)cc1 | 13 | 10
Clc1ccc(Cn2ccnc2CNCC2CCCO2)cc1Cl (stereo unspecified) | -2 | 6
Cc1noc(C)c1S(=O)(=O)N(C)CC(=O)NC1CCCC1 | 10 | 16
CC(=O)Nc1cccc(NC(=O)CSc2nc(=O)n3ccccc3n2)c1 | -3 | -5
COc1ccccc1NC(=O)NCCN(C)c1ccccc1 | -5 | -7
